Assay outcomes from PubChem BioAssay.
AID504770 = growth inhibition of E. coli YBA685, primary screen, V. cholerae RctB inhibitors | E. coli YBA685 rctB-dependent plasmid, OD600 growth, 3 h; active compounds read low | z-score (no concentration beside the values) | actives 0.27% (n = 130,000);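 active = z-score under -2 on both plates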;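 also: wells of about 30 µL received 100 nL stock; score is relative to mean and SD of the test wells; the first replicate is given; strong numbers were not always called active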
Ba CapD inh = Bacillus anthracis CapD inhibitors, primary screen, biochemical, fluorescence intensity; purified CapD enzyme, fluorescence intensity read-out; active compounds read low; some hits fall short of the stated cut; z-score (no concentration beside the values); actives 0.23% (n = 140,000); AID 492967, 2010;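 active = z-score under -4 in either of two replicates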;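 also: stock transfer was 100 nL into about 40 µL; score is relative to mean and spread of the plate; one replicate is shown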
Starred values were filed as active, the others as inactive; i = inactive; / = not tested or not shown. A portion of the library. The share of hits here may be higher or lower than overall.

SMILES	AID504770	Ba CapD inh
COC(=O)c1cnc(NC(=O)c2ccc3c(c2)S(=O)(=O)N=C2CCCCCN23)s1	1	/
COc1ccc(Nc2cc(C)c3cc(NC(=O)c4ccco4)ccc3n2)cc1	-1.3	14
CCSc1nnc(NC(=O)c2ccc(C(=O)c3ccccc3)cc2)s1	0.2	i
CC(NS(=O)(=O)c1ccc(C#N)cc1)C(=O)Nc1ccc2ccccc2c1 (stereo not drawn)	/	-0.79
O=C(CC1Sc2ccccc2NC1=O)OCN1C(=O)c2ccccc2C1=O (stereo not drawn)	-0.7	/
COc1ccc(CCNC(=O)CSC2=NCCS2)cc1OC	-0.35	/
O=C(NNC(=O)c1ccccc1)Nc1ccccc1	/	0.36
COc1cc(C=C2C(=O)N(C)C(=O)N(C)C2=O)ccc1OS(=O)(=O)c1ccccc1[N+](=O)[O-]	/	-0.92
C=CCNC(=O)c1cc2c(=O)c3ccccc3oc2nc1C(F)(F)F	0.45	-0.61
CCCC(CC(=O)N1CCN(C/C=C/c2ccccc2)CC1)n1ccnc1 (stereo not drawn)	-0.15	/

Profiles from above. Order of screens: AID504770 | Ba CapD inh
`COC(=O)c1cnc(NC(=O)c2ccc3c(c2)S(=O)(=O)N=C2CCCCCN23)s1` reads 1 | /
`C=CCNC(=O)c1cc2c(=O)c3ccccc3oc2nc1C(F)(F)F` reads 0.45 | -0.61

The listing continues:
SMILES	AID504770	Ba CapD inh
O=[N+]([O-])c1cccc(CSc2nc3ccccc3n2S(=O)(=O)c2ccc(Cl)cc2)c1	/	-0.075
O=C(CSc1nnc(-c2ccc3c(c2)OCO3)o1)c1ccccc1	-0.35	/
CCOc1ccc(Nc2ncccc2C#N)cc1	-0.65	/
CCOC(=O)Cn1sc2nc(C)cc(C)c2c1=O	-1.4	3.9
O=C(Nc1ccc2nc(-c3cccs3)[nH]c2c1)c1cccs1	0.25	/
C=CCN(C(=O)CSc1nnc(-c2cc3occc3n2C)n1-c1ccccc1C)c1ccccc1	-1.5	-0.1
c1ccc(-c2ccccc2OCc2nnc3n2CCC3)cc1	-1.3	-1.2
COC(=O)c1ccc(Nc2cc(C)nc3ccccc23)cc1	-0.95	0.085
O=S(=O)(c1ccc(Cl)cc1)N1CCCCC1	/	-0.9
CC(NC(=O)C(c1ccccc1)c1ccccc1)C(=O)N1CCCCC1 (stereo not drawn)	0.15	i
CC(C)N1C(=O)CSC1c1ccc(Br)cc1 (stereo not drawn)	0.2	0.22
Cc1nc(S(=O)(=O)c2ccccc2)c(N2CCOCC2)o1	/	-0.17
CCOC(=O)c1ccccc1NC(=O)CSc1nnc(Cc2cccn2C)n1-c1ccc(F)cc1	-0.1	0.36
CCOC(=O)c1ccoc1CN1CCN(c2ccc(F)cc2)CC1	0.1	/
CC1CN(C(=O)CSCc2ccccc2)CC(C)O1 (stereo not drawn)	-0.7	/
CC(CC=C(c1ccccc1)c1ccccc1)C1CCC2C3CC=C4CCCC(O)C4(C)C3CCC12C (stereo not drawn)	/	-0.32
O=C(O)C1C2C=CC(C2)C1C(=O)NCc1ccc(-c2cccs2)s1 (stereo not drawn)	-0.05	3.1
CCCSc1nnc2c(n1)OC(c1ccco1)Nc1ccccc1-2 (stereo not drawn)	/	-0.14
NC(=O)C1CCN(c2ncnc3c2c(-c2ccccc2)cn3-c2cccc(C(F)(F)F)c2)CC1	/	0.36
c1csc(Cc2cccs2)c1	-0.65	1

Continued (2 carried over from the part before).
SMILES	AID504770	Ba CapD inh
NC(=O)C1CCN(c2ncnc3c2c(-c2ccccc2)cn3-c2cccc(C(F)(F)F)c2)CC1	/	0.36
c1csc(Cc2cccs2)c1	-0.65	1
C/C(=N\OC(=O)c1ccco1)c1ccccc1O	0.15	0.9
CC(CCOC(=O)N1CCN(c2ccc(C(F)(F)F)cn2)CC1)c1ccccc1 (stereo not drawn)	/	3.1
CC(C)(C)C(CN1CCCC1)OC(=O)c1ccccc1 (stereo not drawn)	0.2	0.54
COC(=O)c1ccccc1N=NNc1cc(OC)cc(C(F)(F)F)c1	/	1.6
Cc1cc(OCC(=O)C(C)(C)C)c2c3c(c(=O)oc2c1)CCCC3	-0.1	1.7
NC(=O)C1CCN(CC(O)COc2ccc(-c3csnn3)cc2)CC1 (stereo not drawn)	1	0.41
Cc1ccc(-n2nnnc2SCCN2C(=O)c3ccccc3C2=O)c(C)c1	-1.3	/
C=CC(=O)N1c2cc(C)c(C)cc2C2=C(SC(C(=O)OC)=C(C(=O)OC)C23SC(C(=O)OC)=C(C(=O)OC)S3)C1(C)C	/	-0.15
NS(=O)(=O)c1ccc(CCNC(=O)c2cc3c(Cl)ccc4c3n2CCO4)cc1	1	72
CC(C)c1ccccc1NC(=O)CN1c2ccccc2CC1C (stereo not drawn)	0.4	/
O=C(NNC(=O)c1sccc1NC(=O)c1ccccc1Cl)c1ccc(CSc2ccccn2)o1	/	-0.92
O=C1NC(=O)C(CCc2ccccn2)(CCc2ccccn2)C(=O)N1	-0.7	-0.36
N#Cc1ccc(S(=O)(=O)N2CCC(N3CCCCC3)CC2)cc1	0	-0.065
O=C(COC(=O)c1cc(Cl)nc(Cl)c1)Nc1cccc2ccccc12	-0.6	0.48
C=CCSc1ccc(OCC(F)(F)F)c(C#N)c1OCC(F)(F)F	-0.85	2.5
CCCCN(C)C(=O)Cc1ccc(-n2c(=S)[nH]c3ccccc3c2=O)cc1	-0.7	2.2
O=C(N1CCc2ccc(S(=O)(=O)N3CCC(O)(c4ccccc4)CC3)cc2C1)C(F)(F)F	/	-0.09
O=C(CSC(=S)N1CCCC1)c1ccccc1	1.4	-0.31
O=C(CN1C(=O)CSC1=O)NC1CCCCC1	-0.95	/
COC(=O)Cn1c(=N)n(Cc2ccccc2)c2ccccc21	2.5	-0.17
CC(=O)Nc1c(Br)c(C2CC2)nn1-c1ccccc1	-1.8	0.21
O=C(NC1(C(F)(F)F)NC(=O)N(Cc2ccccc2)C1=O)c1ccco1 (stereo not drawn)	-0.45	0.055
c1ccc(C(CNc2ncccn2)c2ccccc2)cc1	-0.9	1.6
COc1cc(-n2c(=O)c3ccccc3n(CC(=O)NCc3ccco3)c2=O)cc(OC)c1OC	0.35	-0.29
C=CCN(CC(=O)NC1CC1)S(=O)(=O)c1cccc(C(F)(F)F)c1	-0.3	/
Cc1cc(=O)oc2c(C)c3oc(C(=O)c4ccccc4)c(C)c3cc12	/	0.41
N#CC(c1ccccc1)N1CCSCC1 (stereo not drawn)	-1.5	-0.48
Cc1nn(-c2ccccc2)c2c1C=Nc1cc(Cl)ccc1O2	1.8	/
c1ccc(OCc2nn3cnnc3s2)cc1	0.95	-0.64
Cc1cc(C)cc(-n2c(C)cc(/C=N/NC(=O)CSc3ncccn3)c2C)c1	1.6	/
CSc1ccccc1-c1nnc(NC(=O)Cc2ccccc2)o1	-1.1	/
Cc1nc2c(c(C)nn2C)c(C)c1CCC(=O)NCCCc1ccccc1	-0.85	8.1
CC(C)Cc1ccc(S(=O)(=O)NC2CCCCC2C)cc1 (stereo not drawn)	0.7	0.32
S=c1n(CN2CCCC2)nc2c(Cl)cc(Cl)cn12	-0.5	/
O=C(Nc1ccccc1)c1ncn(-c2ccccc2)n1	-0.85	0.075
COC(=O)c1n[nH]c(=O)c2ccccc12	-0.95	/
COc1cccc(-c2cc(C(F)(F)F)n3ncc(C(=O)N(C)CCc4ccccn4)c3n2)c1	-0.75	33
COc1ccc(CC2CCC(=NO)CC2)cc1 (stereo not drawn)	/	0.015
N#CCC(=O)N1CCN(C(c2ccccc2)c2ccccc2)CC1	-0.75	/
O=C1CC(C(=O)Nc2ccc3c(c2)OCCO3)n2c(nc3ccccc32)N1 (stereo not drawn)	3	-0.075
CC(=O)NCCNC(=O)c1ccc(CSc2ccccn2)o1	/	0.7
FC(F)(F)c1cccc(N2CCN(c3ncc(-c4ccc(Cl)cc4)cn3)CC2)c1	/	-0.42
C=CCNc1nc(C(=O)O)cs1	-0.05	/
O=C(OC1CCS(=O)(=O)C1)c1ccc(Br)o1 (stereo not drawn)	0.1	/
Cc1ccccc1Nc1nc(N)nc(Cn2nc(C(=O)O)c3ccccc3c2=O)n1	1.6	/
O=S(=O)(CCc1nc2ccccc2[nH]1)CCc1nc2ccccc2[nH]1	-0.7	0.025
CCOc1cc2[nH]c(=S)n(CCCCC(=O)N3CCCCCC3)c(=O)c2cc1OCC	-0.1	0.47
Cc1oc2cc(OC(=O)N(C)C)ccc2c(=O)c1-c1nc2ccccc2s1	-0.6	-1.1
CSc1nccc(-c2ccc(S(=O)(=O)N(CCC#N)Cc3ccco3)s2)n1	/	0.76
C=CCc1c(NCCO)nc(C)[nH]c1=O	0.15	/
(more compounds)
SMILES	AID504770	Ba CapD inh
CCN(CC)c1cnn(-c2ccc(C(F)(F)F)cc2)c(=O)c1Cl	1.1	9.2
CC(C)C(c1nnnn1CCc1ccccc1)N1CCCC1 (stereo not drawn)	-0.25	/
COc1ccc(OCc2nc3ccccc3[nH]2)cc1	-0.5	0.3
CCOC(=O)CSc1nc2sc3c(c2c(=O)n1Cc1ccccc1)CC(C)(CC)OC3 (stereo not drawn)	/	1
CCOC(=O)c1nn(-c2ccccc2)c(C#N)c1N	-1	112
Cc1n[nH]c(=S)n1/N=C/c1c[nH]c2ccccc12	0.15	-0.83
CCCCNC(=O)C1CCN(c2nc(OC)nc(OC)n2)CC1	-1.3	/
CNC(C)CN1c2ccccc2Sc2ccccc21 (stereo not drawn)	-0.5	-0.055
COC(=O)COc1ccc2ccc(=O)oc2c1	0.05	/
CCc1nc2sc3c(NCCN(C)C)ncnc3c2c2c1CCCC2	-0.65	18
CCOC(=O)c1ccc(NC(=O)CCN2C(=O)S/C(=C/c3ccc(OC)cc3)C2=O)cc1	/	1.1
CC1(C)CC(=O)C2=C(C1)OC1=C(C(=O)CC(C)(C)C1)C2c1ccc(C#N)cc1	/	0.15
O=C(CSc1cccc[n+]1[O-])N1CCCCC1	-1.6	1
COC(=O)COc1ccc(/C=C2\C(=O)NC(=O)N(c3ccc(Cl)cc3)C2=O)cc1OC	/	-0.38
COc1ccc(-n2ncc3c(NC(c4ccccc4)c4ccccc4)ncnc32)cc1	/	18
O=C(CCCn1c(=O)c2ccc(Cl)cc2n(CC(=O)c2cccc(Br)c2)c1=O)NCc1ccco1	0.15	-0.8
O=C(C(NS(=O)(=O)c1ccc(Br)s1)c1ccccc1)N1CCOCC1 (stereo not drawn)	-0.85	0.46
Cc1nc(SCC(=O)N(C)C2(C#N)CCCCC2)c2ccccc2n1	-0.2	/
O=C(CCSCc1ccccc1)NCc1ccco1	-1.4	/
O=C(Cn1c(=O)n(-c2ccccc2)c(=O)c2c3c(sc21)CCC3)NCc1ccco1	1.4	-0.35

Filtered by structure, the compounds so far with a COOH group (3)
SMILES	AID504770	Ba CapD inh
O=C(O)C1C2C=CC(C2)C1C(=O)NCc1ccc(-c2cccs2)s1 (stereo not drawn)	-0.05	3.1
C=CCNc1nc(C(=O)O)cs1	-0.05	/
Cc1ccccc1Nc1nc(N)nc(Cn2nc(C(=O)O)c3ccccc3c2=O)n1	1.6	/

Next compounds
SMILES	AID504770	Ba CapD inh
CC(COC(=O)NNC(=O)c1ccc(-c2ccccc2)cc1)NC(=O)OC(C)(C)C (stereo not drawn)	/	3.8
COc1ccc2[nH]c3c(=O)n(CCCCC(=O)Nc4ccccc4)c(=S)[nH]c3c2c1	2.8	-1.1
O=C(Cc1cccc2ccccc12)NN1C(=O)C2C3C=CC(C3)C2C1=O (stereo not drawn)	2	-0.3
Cc1cccc(NC(=S)Nc2c(C(C)C)cccc2C(C)C)c1	0	0.055
CC1C=CCC2C(=O)N(c3cccc(C(=O)N4CCC(Cc5ccccc5)CC4)c3)C(=O)C12 (stereo not drawn)	/	-0.56
CCCCNC(=O)CSc1nc(NCCOC)c2ccccc2n1	/	2.5
CCC(C)(C)C1C/C(=C\c2cc(OC)c(OC)c(OC)c2)C(=O)/C(=C/c2cc(OC)c(OC)c(OC)c2)C1 (stereo not drawn)	/	-0.09
CC1(C)CC(=O)C=C(NN2CCOCC2)C1	2.1	-0.07
COc1cccc2sc(NC(C)=O)nc12	0.3	1.1
CCc1nc2ccccc2c(C(=O)OCC(=O)N(C)C)c1C	-0.5	/

Seven entries picked at random from the list so far:
SMILES	AID504770	Ba CapD inh
CC1(C)CC(=O)C=C(NN2CCOCC2)C1	2.1	-0.07
CCc1nc2ccccc2c(C(=O)OCC(=O)N(C)C)c1C	-0.5	/
O=C(Cc1cccc2ccccc12)NN1C(=O)C2C3C=CC(C3)C2C1=O (stereo not drawn)	2	-0.3
CC(COC(=O)NNC(=O)c1ccc(-c2ccccc2)cc1)NC(=O)OC(C)(C)C (stereo not drawn)	/	3.8
COc1ccc2[nH]c3c(=O)n(CCCCC(=O)Nc4ccccc4)c(=S)[nH]c3c2c1	2.8	-1.1
CCCCNC(=O)CSc1nc(NCCOC)c2ccccc2n1	/	2.5
CC1C=CCC2C(=O)N(c3cccc(C(=O)N4CCC(Cc5ccccc5)CC4)c3)C(=O)C12 (stereo not drawn)	/	-0.56

Going on with the list.
SMILES	AID504770	Ba CapD inh
COc1ccc(C(=O)c2c(NC(C)=O)sc3c2CCN(C(=O)OC(C)(C)C)C3)cc1	0.05	-0.4
N#Cc1ccc(OC(=O)c2ccc(Cl)cc2Cl)cc1	-0.6	0.07
COc1ccccc1Nc1ccc(S(=O)(=O)N2CCCC2)cn1	-0.05	/
COc1ccc(C(=O)n2nc(-c3cccnc3)nc2N)cc1	-0.75	-0.54
C=CCn1c(SCC(=O)Nc2ccccc2Cl)nc2sc(CC)cc2c1=O	/	-0.22
O=C(CSc1ccccn1)Nc1ccc(O)c(C(=O)O)c1	-1.1	8.3
O=C1NC(c2cccc(Oc3ccccc3)c2)Oc2ccccc21 (stereo not drawn)	1	0.21
O=c1c2ccccc2nnn1CSc1nncs1	0	/
O=C(CC12CC3CC(CC(C3)C1)C2)Nc1ccccc1N1CCOCC1	0.75	/
Cc1cc(C)n2c(C#N)c(C#N)nc2n1	0.1	/
